# High-throughput results deposited in PubChem by several laboratories.
# Arbovirus anti: antivirals against arbovirus infection, primary screen, cell-based, full library, 10K replicate subset; arbovirus infection cell-based antiviral screen; inhibition, % at 10 µM; 0.37% of 200,000 active;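 active = inhibition from about 30%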;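 also: bluetongue infection of BSR cells; cell survival read as ATP light after 72 h; 0% = infected wells without compound and 100% = uninfected wells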
# YopH inh: YopH tyrosine phosphatase inhibitors, primary screen, biochemical, fluorescence Ex485/Em525 | YopH tyrosine phosphatase [Yersinia enterocolitica] | inhibition, %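 (about 10 µM by stock and volumes)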 | 0.16% of 140,000 active;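 active = inhibition of 50% or more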;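 also: controls were vehicle for no effect and minimum signal wells for full effect; inactives centre near -20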
# Mtb betalactam: beta-lactam sensitization of Mtb H37Rv, H37Rv | 0.27% of 330,000 active | inhibition, % at 25 µM | M. tuberculosis H37Rv growth with meropenem, percent inhibition; hits of this screen are not shown here | AID 434955, 2010;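 active = about 74% or more and at least 40 points above the plate without the antibiotic, then above 30% in a dose series; inconclusive = first-round hits that could not be retested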;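 also: growth measured after seven days incubation then overnight dye step; 0% = bacteria only wells and 100% = bacteria with antibiotic; twin plates without the antibiotic show which effects depend on it; some results filed as inactive read as strong as hits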
# RecA splice inh: Mtb RecA intein splicing inhibitors, primary screen, biochemical, fluorescence, HTS; Protein RecA (Mycobacterium tuberculosis (strain ATCC 25618 / H37Rv)), P9WHJ3; cell-free RecA intein splicing; inhibition, %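 (about 9 µM by stock and volumes)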; 0.75% of 290,000 active; AID 2221, 2009; in the data active = inhibition above about 30%; inconclusive = no clear call, values can overlap the other calls;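 also: 0% = vehicle wells and 100% = reference inhibitor control wells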
# Target sequence (P9WHJ3 whole entry, looked up, canonical isoform): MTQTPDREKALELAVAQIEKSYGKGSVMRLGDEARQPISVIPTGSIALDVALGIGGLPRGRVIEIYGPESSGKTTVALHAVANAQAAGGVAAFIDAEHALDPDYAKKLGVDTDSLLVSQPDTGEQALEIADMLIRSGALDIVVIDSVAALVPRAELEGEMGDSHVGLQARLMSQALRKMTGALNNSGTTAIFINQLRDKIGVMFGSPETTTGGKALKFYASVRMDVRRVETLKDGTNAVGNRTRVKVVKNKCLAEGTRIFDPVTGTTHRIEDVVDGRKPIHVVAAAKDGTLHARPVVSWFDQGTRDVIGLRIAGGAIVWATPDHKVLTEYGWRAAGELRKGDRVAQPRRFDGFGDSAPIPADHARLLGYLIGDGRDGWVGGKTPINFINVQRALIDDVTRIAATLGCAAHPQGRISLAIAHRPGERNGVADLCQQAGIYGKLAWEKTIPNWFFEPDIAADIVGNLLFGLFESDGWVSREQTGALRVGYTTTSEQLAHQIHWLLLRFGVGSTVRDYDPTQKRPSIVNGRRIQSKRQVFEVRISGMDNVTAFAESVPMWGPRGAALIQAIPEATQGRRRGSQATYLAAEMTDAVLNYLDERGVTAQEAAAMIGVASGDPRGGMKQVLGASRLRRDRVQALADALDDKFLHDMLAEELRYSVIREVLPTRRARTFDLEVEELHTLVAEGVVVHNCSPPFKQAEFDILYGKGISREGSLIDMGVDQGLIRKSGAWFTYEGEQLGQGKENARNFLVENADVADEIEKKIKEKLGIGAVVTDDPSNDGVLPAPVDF
# Mtb growth: M. tuberculosis H37Rv growth inhibitors, H37Rv strain (AID 1626); M. tuberculosis H37Rv growth inhibition; higher % means a stronger effect; inhibition, % at 10 µM, or IC50 in µM where a hit was titrated; 0.95% of 220,000 active;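 active = confirmed in a dose series; inconclusive = inhibition above 80% but not taken into the dose series; inactive = below 80% or under 30% at every dose of the series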;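 also: bacteria incubated seven days before Alamar blue readout; 0% = bacteria only wells and 100% = bacteria with antibiotic wells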
# Arbovirus anti repeat: second read-out of Arbovirus anti, no call of its own (marks repeat the call); inhibition, %; measured here: 10K subset replicate screen; many hits read low in the repeat;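 first of two repeat runs on a subset; 0% = infected and 100% = uninfected wells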
# * = called active by the depositor; ? = inconclusive; . = no result given. The list is partial; count on the stated rates, not on these rows.
SMILES,Arbovirus anti,YopH inh,Mtb betalactam,RecA splice inh,Mtb growth,others
COC(=O)c1ccc(Cn2nc([N+](=O)[O-])c(Br)c2C)cc1,.,.,-1,0.2,-1%,
COc1ccc(S(=O)(=O)NC2CC(C)(C)NC(C)(C)C2)c2ccccc12,.,.,0,-5.2,.,
CO/N=C/C(=N\Nc1cc(OC)cc(OC)c1)C(=O)c1ccccc1,-10,.,3,2.1,11%,
COCCNC(=O)c1ccc2c(c1)C(=O)c1ccccc1-2,.,.,5,-0.4,.,
COCCOC(=O)C1=C(C)NC(=O)NC1c1ccc(-c2ccc(F)cc2)o1 (stereo not given),-4,.,-10,-2.0,1%,
COC(=O)CCN(C(C)=O)c1ccc(N)cc1,1,-34,4,6.1,4%,
COc1ccccc1S(=O)(=O)N1CCC(C(=O)O)(c2ccccc2)CC1,.,.,4,-1.6,.,
CC(=O)c1ccc(S(=O)(=O)Oc2ccc(-c3ccc(C(=O)O)cc3)cc2)cc1,.,.,4,-2.3,.,
CC(C)CCN1CCN(Cc2cccn2-c2ccccn2)CC1CCO (stereo not given),-3,.,-7,4.6,-1%,
C=CCN1C(=O)/C(=C\C(C)=C\c2ccccc2)SC1=S,.,.,-3,1.4,.,
CCOC(=O)c1cccc(S(=O)(=O)N2CCCC2)c1,2,-10,1,-0.6,-8%,
CCNC(=S)N(CCc1c(C)[nH]c2ccc(F)cc12)Cc1cccnc1,.,.,-1,1.7,.,
COC(=O)c1cccc(Cn2c(Cl)c(/C=N/Nc3ccccc3C)sc2=O)c1,-19,-31,-1,12,10%,
CCC(=O)Oc1ccc(C(CC)C(CC)c2ccc(OC(=O)CC)cc2)cc1 (stereo not given),-17,-38,-2,-3.4,21%,
Cc1ccc(SC[C@H](c2ccccc2)N2CCN(C)CCC2=O)cc1,.,.,.,0.6,-8%,
Cc1ccc(C(=O)Nc2cccc(-c3cn4ccccc4n3)c2)cc1,-1,.,68,-0.3,-1%,
COC(=O)c1cc(NC(=O)C2COc3ccccc3O2)cc(C(=O)OC)c1 (stereo not given),-2,-97,?,2.7,8%,
CN(C)c1cccc2c1c(NS(=O)(=O)c1cn(C)cn1)nn2C,.,.,?,0.9,.,
CN(C(=O)Cn1c(=O)oc2cc(S(=O)(=O)N3CCCC3)ccc21)C1CCCCC1,.,.,-6,1.4,.,
COc1ccc(-c2[nH]c(-c3cccc(OC)c3)nc2SCC(=O)NC2CCCC2)cc1,-20,-10,72,5.4,19%,

# No new results follow: two of the compounds above.
SMILES,Arbovirus anti,YopH inh,Mtb betalactam,RecA splice inh,Mtb growth,others
CN(C(=O)Cn1c(=O)oc2cc(S(=O)(=O)N3CCCC3)ccc21)C1CCCCC1,.,.,-6,1.4,.,
COc1ccc(-c2[nH]c(-c3cccc(OC)c3)nc2SCC(=O)NC2CCCC2)cc1,-20,-10,72,5.4,19%,

# Continued:
SMILES,Arbovirus anti,YopH inh,Mtb betalactam,RecA splice inh,Mtb growth,others
NS(=O)(=O)c1ccc(-c2ccc(C=C3C(=O)NC(=S)NC3=O)o2)cc1,.,.,1,-7.1,.,
Clc1ccc(-c2nc3cnccn3c2Nc2ccc3c(c2)OCO3)cc1,-33,-7,11,3.8,31%,
Cc1nc2cc3c(cc2c(C)c1C(=O)OC(C)C)OCO3,-6,-20,5,0.3,3%,
C=CCNc1nc(-c2ccccc2)c(C(=O)OCC)cc1C#N,-17,-33,5,2.0,19%,
CC(Sc1n[nH]c(-c2ccccc2)n1)C(=O)c1c(N)n(C)c(=O)n(C)c1=O (stereo not given),.,.,-1,0.0,.,
CC1CCc2c(sc3ncnc(SCC(=O)c4ccccc4)c23)C1 (stereo not given),-13,9,17,-0.7,-9%,
CCCN(CCC)S(=O)(=O)c1ccc(C(=O)Nc2c(C)n(C)n(-c3ccccc3)c2=O)cc1,-1,.,-2,-5.7,0%,
CC(=O)NC1C(Oc2ccccc2C)OC(CO)C(O)C1O (stereo not given),-1,.,-7,-0.3,-7%,
O=S1(=O)CC(NCc2ccccc2)C(Nc2ccccc2)C1 (stereo not given),-2,35,4,0.9,-21%,
O=C(NCCN1CCCCC1)Nc1cccc(C(F)(F)F)c1,.,.,6,-0.5,.,

# An excerpt from above in order of length of the SMILES, smallest number first.
SMILES,Arbovirus anti,YopH inh,Mtb betalactam,RecA splice inh,Mtb growth,others
CC(=O)NC1C(Oc2ccccc2C)OC(CO)C(O)C1O (stereo not given),-1,.,-7,-0.3,-7%,
Cc1nc2cc3c(cc2c(C)c1C(=O)OC(C)C)OCO3,-6,-20,5,0.3,3%,
C=CCNc1nc(-c2ccccc2)c(C(=O)OCC)cc1C#N,-17,-33,5,2.0,19%,
CC1CCc2c(sc3ncnc(SCC(=O)c4ccccc4)c23)C1 (stereo not given),-13,9,17,-0.7,-9%,
Cc1ccc(C(=O)Nc2cccc(-c3cn4ccccc4n3)c2)cc1,-1,.,68,-0.3,-1%,
Cc1ccc(SC[C@H](c2ccccc2)N2CCN(C)CCC2=O)cc1,.,.,.,0.6,-8%,
CCNC(=S)N(CCc1c(C)[nH]c2ccc(F)cc12)Cc1cccnc1,.,.,-1,1.7,.,
CCC(=O)Oc1ccc(C(CC)C(CC)c2ccc(OC(=O)CC)cc2)cc1 (stereo not given),-17,-38,-2,-3.4,21%,
COC(=O)c1cccc(Cn2c(Cl)c(/C=N/Nc3ccccc3C)sc2=O)c1,-19,-31,-1,12,10%,
NS(=O)(=O)c1ccc(-c2ccc(C=C3C(=O)NC(=S)NC3=O)o2)cc1,.,.,1,-7.1,.,
COc1ccc(-c2[nH]c(-c3cccc(OC)c3)nc2SCC(=O)NC2CCCC2)cc1,-20,-10,72,5.4,19%,
CC(Sc1n[nH]c(-c2ccccc2)n1)C(=O)c1c(N)n(C)c(=O)n(C)c1=O (stereo not given),.,.,-1,0.0,.,
CCCN(CCC)S(=O)(=O)c1ccc(C(=O)Nc2c(C)n(C)n(-c3ccccc3)c2=O)cc1,-1,.,-2,-5.7,0%,

# Other results.
SMILES,Arbovirus anti,YopH inh,Mtb betalactam,RecA splice inh,Mtb growth,others
O=C(NNC(=O)c1cc2ccccc2cc1O)NC1CCCCC1,.,.,0,-11,.,
Fc1ccc(COc2ccc(Br)cc2CNCC2CCCO2)cc1 (stereo not given),13,.,2,0.0,14%,
CCN1C(=O)CSC1=NC1C2CC3CC(C2)CC1C3 (stereo not given),-9,-52,5,5.1,11%,
O=C(Cc1coc(-c2ccc(F)cc2)n1)NC1CCCCC1,-2,-41,-4,-1.8,7%,
COc1ccc(N2CCN(C(=O)Cc3ccc(OC)c(OC)c3)CC2)cc1,.,.,1,-2.1,.,
O=C1NC(=O)C2(C(=O)N1)C(c1ccc(F)cc1)NC(=S)NC2c1ccc(F)cc1 (stereo not given),3,-12,-2,-3.7,-4%,
CCC(C(=O)NCCc1ccc(S(N)(=O)=O)cc1)c1ccccc1 (stereo not given),.,.,-3,0.8,.,
CC(=O)NC/C(C)=N\Nc1ccc([N+](=O)[O-])cc1,-22,.,97,1.5,?,
CCCN(CCC)CC(O)CN(c1cc([N+](=O)[O-])ccc1OC)S(=O)(=O)c1ccccc1 (stereo not given),2,-22,-10,0.1,.,
CC(=O)Nc1ccc(S(=O)(=O)NCCS(=O)(=O)N2CCN(c3ccccc3)CC2)cc1,.,.,3,0.3,.,
COc1cc(NC(=O)c2cc(-c3ccccc3)on2)cc(OC)c1OC,.,.,1,2.0,.,
CCCc1cc(=O)oc2c(C)c(O)c(CN3CCCCC3)cc12,5,-42,-5,-466,-7%,
COc1cc(CNCCCN2CCOCC2)ccc1OCC(=O)NC(C)(C)C,5,.,-1,1.0,2%,
COc1ccccc1NC(=S)N(CCCN(C)C)Cc1cc2cc3c(cc2[nH]c1=O)OCO3,5,.,5,1.4,-2%,
Cc1nc([N+](=O)[O-])c(SCC(O)CCl)n1Cc1ccc(Cl)cc1 (stereo not given),4,.,5,2.4,-8%,
O=C(Nc1ccc(N2CCCC2)cc1)c1cccc(-c2cc3ccccc3oc2=O)c1,-9,-21,91,-1.7,9%,
Cc1cc(NCCCn2ccnc2)n2nc(-c3ccc(Cl)cc3)cc2n1,-15,.,55,2.4,11µM*,
CCOP(=O)(OCC)c1ccc(O)cc1,5,.,-3,-1.3,0%,
Cc1sc2ncnc(N3CCC(C(=O)Nc4nnc(SCc5ccccc5F)s4)CC3)c2c1C,.,.,-1,-1.4,.,
Cc1cc(N)n(-c2ccc3ccccc3c2)n1,-14,-35,19,3.8,-5%,
Cc1cc2ccccn2c1C(C[N+](=O)[O-])c1ccc(N(C)C)cc1 (stereo not given),-8,-7,6,1.0,11%,
COc1ccc(-c2nc(SCC(=O)NC3CCCC3)c(-c3ccc(OC)cc3)[nH]2)cc1,-19,-19,80,4.9,.,
O=[N+]([O-])/C=C/c1cc2ccccc2[nH]1,.,.,1,5.3,-12%,
COc1ccc(/C=C/c2nc3ccccc3n2C)cc1,-16,.,22,3.7,19%,
CCC(C(=O)O)N1C(=O)C2CCCCC2C1=O (stereo not given),.,.,2,-1.1,.,
COc1ccc(NC(=O)C(CC(C)C)NC(=O)C2CCC(C)CC2)cc1 (stereo not given),.,.,-4,1.7,.,
CCN1CCN(C(=O)CN(Cc2ccccc2)S(C)(=O)=O)CC1,7,-25,-6,3.3,-4%,
O=C(Nc1nc2ccc(F)cc2s1)C1=NN(c2ccccc2)C(=O)CC1,22,-31,1,2.5,3%,
CCOC(=O)CC(NC(=O)c1cccs1)c1ccc(C)cc1 (stereo not given),.,.,-3,-1.2,.,
CC(Cl)C(=O)Nc1ncc(C(F)(F)F)cc1Cl (stereo not given),2,-1,38,-5.7,-3%,
O=c1[nH]cc(N(CCO)CCO)c(=O)[nH]1,.,.,-3,-2.2,0%,
Cc1ccc2nc(N(CCCN(C)C)C(=O)CN3C(=O)c4ccccc4C3=O)sc2c1,4,.,-4,-2.4,3%,
CCN1CCN(Cc2c(O)ccc3c(=O)c(-c4ccc(OC)c(OC)c4)c(C(F)(F)F)oc23)CC1,-1,-22,-8,-2.9,-8%,
Oc1c(C(c2cccs2)N2CCOCC2)sc2ncnn12 (stereo not given),5,-38,0,0.7,-6%,Arbovirus anti repeat=9
Cc1ccc(CC(=O)Nc2ccc(S(=O)(=O)N3CCOCC3)cc2)cc1,.,.,-3,-2.5,.,
COc1cc(NC(=O)C/C(C)=N/NC(=O)C(=O)NC2CCCCC2)c(OC)cc1Cl,7,.,14,7.3,5%,
COc1cccc(NC(=O)CSc2nnc(-c3cccs3)n2C)c1,-1,32,-1,0.1,-6%,
O=C(COc1cc2oc(=O)c3c(c2cc1Cl)CCC3)Nc1ccc(CN2CCOCC2)cc1,.,.,-1,-3.8,.,
COc1ccc(-c2nnc(NC(=O)CSc3ccccc3)s2)cc1OC,-4,-25,5,0.0,4%,
CSc1nc2ccccc2cc1/C=C(\C#N)c1ccc(Cl)c(Cl)c1,14,-24,-3,-2.1,6%,
CCc1cc(=O)n2c([nH]c3ccccc32)c1C#N,-10,-74,2,-4.2,-5%,
Cc1n[nH]c(=O)c2c(NC(=O)COC(=O)Cc3c(F)cccc3Cl)oc(C)c12,.,.,-13,2.8,.,
COc1cc([N+](=O)[O-])ccc1NC(=S)Nc1cc(C(=O)OC(C)C)cc(C(=O)OC(C)C)c1,-6,-15,11,2.8,3%,
CCn1c2ccccc2c2cc(/C=N/O)ccc21,7,.,6,-0.5,3%,
CC(=O)c1cccc(NC(=S)NCCc2ccc(F)cc2)c1,0,.,0,1.2,0%,
